Source: PubChem (National Center for Advancing Translational Sciences (NCATS))
HTT prom inh – HTT promoter inhibition | HEK293 HTT promoter firefly luciferase reporter (activity 0% = vehicle and -100% = no light), 24 h | Potency, µM (series often up to 57.5 µM), for inactives: top-dose activity change, negative = inhibition, most hits filed as inhibitors | hit rate 0.93% among 48,000; active = well fitted inhibition curve with a large enough effect; inconclusive = small, poorly fitted or top-dose-only effect; inactive = no such curve, though single readings can be large or run the other way; note: nearly all actives have a fitted effect of over 50% in size
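Firefly luciferase readout (Dual-Glo, 10 min RT) after 24 h, 37 °C compound exposure (final up to 57.5 uM) of HEK293 reporter cells cultured 24 h beforehand; PTC124 at 50 uM final as control inhibitor; activity scaled vehicle 0%, zero RLU -100%.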
PMP22 txn prim – modulates PMP22 transcription in S16 Schwann cells; S16 Pmp22-F2sN Schwann cells (luciferase reporters placed in the Pmp22 gene), FLuc/NLuc coincidence luminescence, 24 h; Potency, µM (titrated, usually from 57.5 µM), without a hit: at the top dose activity change, negative = inhibition, most hits filed as inhibitors; hit rate 2% among 43,000; AID 1508649; active = clear falling dose curves in both reporters; inconclusive = both reporters move, but less clearly or upward; inactive = either reporter flat; the % is the NLuc reporter signal; note: % is set by controls: 0 for no effect and ±100 for the full control effect; some results filed as inactive show a strong effect at the top dose
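S16 Schwann cells carrying FLuc/NLuc coincidence reporter in the Pmp22 3' UTR treated with compound 24 h at 37C; FLuc then NLuc luminescence read sequentially by dual-luciferase reagents.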
The depositor's hits bear a star; ? = inconclusive; . = not tested or not shown; & = joins results of further samples; [ ] = dose if it differs, or a comment. Potency is the fitted concentration of half-maximal effect.

item	canonical_smiles	PMP22 txn prim	HTT prom inh
1	Cc1cccc(C(=O)NCC(c2cccs2)S(=O)(=O)c2cccs2)c1 (stereo not given)	-3%	-18%
2	COc1cc(C2CC(=O)Nc3c2c(C)nn3-c2nncc(-c3ccccc3)n2)cc(OC)c1OC (stereo not given)	-4%	-10%
3	O=c1n(Cc2ccccc2)nc2n1-c1ccccc1OC2	?	25%
4	COc1cccc(NC(=O)c2c(-c3ccc(C)cc3)nnc3ccccc23)c1	-6%	32%[activator]
5	CCOc1ccccc1CNC(=O)c1[nH]c2ccccc2c1Sc1ccccc1	-27%	?
6	Cc1ccc(C(=O)c2c(N)c(C(=O)Nc3cccc(C(F)(F)F)c3)c3ccccn23)cc1	56%	-2%
7	CCOC(=O)c1cnc(NCc2ccccc2OC)c2ccccc12	?	-24%
8	CCOc1ccccc1C(=O)N(Cc1ccco1)Cc1ccccc1F	4%	-25%
9	Cc1ccc(N2CCN(C(=O)c3cnn(-c4ccc(C)c(C)c4)c3C3CCNCC3)CC2)c(C)c1	?	?
10	CCc1ccc(NC(=O)N2CCC(N3CCN(Cc4ccc(C)cc4)C(=O)C3=O)CC2)cc1	-20%	1%
11	CCCN(CCC)C(=O)C1CCN(c2cc(C)nc3c(-c4ccc(Cl)cc4)c(C)nn23)CC1	-16%	-8%
12	O=C(Cn1nc2c(cc1=O)CCCC2)NCc1ccccc1	-10%	37%
13	O=c1c2ccccc2n(Cc2cccc(Cl)c2)c(=O)n1Cc1ccccc1	-23%	-40%
14	CCC[C@H](NC(=O)C(C#N)=Cc1cccc(Br)n1)c1ccccc1	.	?
15	COc1ccc(N(C(=O)c2ccccc2C)S(=O)(=O)c2ccc(Cl)cc2)cc1	17%	?
16	CCOc1ccccc1CNS(=O)(=O)c1cnc(N)nc1	6%	-2%
17	O=C(COc1ccc(F)cc1)Nc1ccc(S(=O)(=O)N(Cc2ccccc2)c2ccccc2)cc1	-6%	30%
18	COc1ccccc1CNS(=O)(=O)c1ccc(-c2cnc(C3CC3)o2)cc1	?	?
19	CCOc1c(Cl)cc(C(=O)N(Cc2ccc(N(C)C)cc2)Cc2ccco2)cc1Cl	?	-12%
20	CCn1c(C(=O)NCc2cc(Br)ccc2OC)cc2oc3ccccc3c21	6%	?
21	CCOc1ccc(C(=O)c2cn(CC(=O)Nc3cc(OC)ccc3OC)c3cc(OC)c(OC)cc3c2=O)cc1	-23%	-14%
22	O=S(=O)(c1ccccc1)c1nc(-c2cccs2)oc1N1CCCCC1	?	-35%
23	COc1cc(NC(=O)CCc2c(C)n(C)c3cc(-c4ccccc4C)nn3c2=O)cc(OC)c1OC	-4%	1%
24	CCOc1ccc(-n2nc3ccc(NC(=O)c4ccc(-c5cccc(Cl)c5)o4)cc3n2)cc1	?	?
25	COC(=O)CSc1nc2c(cnn2-c2ccc(F)cc2)c(=O)[nH]1	44%	-19%
26	CCOc1ccc(NC(=O)CSc2cn(CC(=O)N3CCOCC3)c3ccccc23)cc1	-25%	6%
27	CCOc1ccccc1CNS(=O)(=O)c1ccc2c(c1)CCCN2C(C)=O	?	-27%
28	COC(=O)c1ccccc1NC(=O)Cn1c(CCC(=O)O)ccc1-c1cccs1	-10%	-18%
29	Cc1ccc2c(c1)N(CCCC(=O)NCc1cccc(F)c1)C(=O)CO2	-2%	-2%
30	Cc1ccc(C(=O)c2oc3ccccc3c2NC(=O)c2cc(=O)c3cc(C)ccc3o2)cc1	-4%	-10%

item	canonical_smiles	PMP22 txn prim	HTT prom inh
31	CCN1C(=O)c2ccccc2Sc2ccc(NC(=O)c3cccc(C)c3)cc21	-16%	?
32	O=C(O)[C@@H]1CSCN1	.	-6%
33	Cn1nnc2c(N3CCN(c4ccccc4)CC3)ncnc21	-16%	-1%
34	CCOc1ccc(NC(=O)c2cccc3c(=O)c4c([nH]c23)CCCC4)cc1	-22%	-10%
35	O=C(NCC(c1ccc2c(c1)OCO2)N1CCOCC1)c1ccccc1F (stereo not given)	?	23%
36	CCN(CC)c1ccc(C(=O)NCc2ccc3c(c2)CCN3C(=O)c2cccc(C)c2)cc1	-4%	-2%
37	CC(=O)c1ccc(NC(=O)CCn2cccn2)cc1	9%	5%
38	CCOc1ccc(CCNC(=O)c2ccc(-n3c(C)cc4c3CCCC4)cc2)cc1OCC	?	?
39	Cc1ccc(C(=O)c2cn(CC(=O)Nc3ccc4c(c3)OCCO4)c3nc(C)ccc3c2=O)cc1	-25%	-17%
40	Cc1ccc(CNC(=O)C2CCN(S(=O)(=O)N3CCC(C)CC3)CC2)cc1	-8%	-4%
41	CC(=O)c1nn(-c2ccc(OC(F)(F)F)cc2)nc1Nc1ccc(Cl)cc1	-8%	2%
42	CCOC(=O)c1c(C)[nH]c(C)c1S(=O)(=O)N1CCC(C(=O)NCc2ccc(C)cc2)CC1	64%	16%
43	COc1ccccc1CNC(=O)CSc1nc(-c2ccc(OC)c(OC)c2)cc(C(F)(F)F)n1	?	0%
44	CC1CCc2c(sc3nnn(CC(=O)Nc4c(C(C)C)cccc4C(C)C)c(=O)c23)C1 (stereo not given)	-21%	-27%
45	CCOC(=O)c1cccc(NS(=O)(=O)c2ccc3[nH]c4c(c3c2)CCCC4)c1	?	-29%
46	COc1ccc(-c2cc(=O)oc3c4c(ccc23)OCN(Cc2ccccc2)C4)cc1	?	-21%
47	CCC(CC)C(=O)Nc1ccc2nc(SCC(=O)N3CCc4ccccc43)sc2c1	-17%	?
48	CSc1ccc(C2c3c(oc4ccccc4c3=O)C(=O)N2CCCN2CCOCC2)cc1 (stereo not given)	-7%	-10%
49	COCCNC(=O)CCCn1c(SCC(=O)Nc2cccc(C)c2)nc2c(sc3ccccc32)c1=O	-19%	-18%
50	CCCCSCCCNC(=O)c1cn(CC)c2ccc(S(=O)(=O)N3CCCCCC3)cc2c1=O	?	-9%
51	CCOc1ccccc1C1CC(=O)Nc2c1c(=O)n(C)c1ncnn21 (stereo not given)	-23%	-2%
52	Cc1ccc(C)c(CN2C(=O)c3ccccc3S(=O)c3ccc(C(=O)NCc4ccco4)cc32)c1 (stereo not given)	?	?
53	CCc1ccc(S(=O)(=O)c2cn(C)c3cc(N4CCCCC4C)c(F)cc3c2=O)cc1 (stereo not given)	-30%	?
54	Nc1ncnc2ccccc12	.	-7%
55	CCCCCNC(=O)N1CCC(CN(Cc2ccc(Cl)cc2)Cc2ccc([N+](=O)[O-])s2)C1 (stereo not given)	.	-9%
56	CC(C)C(=O)Nc1nnc(S(=O)(=O)N(C)Cc2ccc(F)cc2)s1	34%	-4%
57	Cc1ccc(CCNC(=O)c2ccc(CNS(=O)(=O)c3ccccc3)cc2)cc1	25%	-33%
58	Cc1ccc(NC(=O)CSc2nc3nccnc3c(=O)n2CCc2c[nH]c3ccccc23)cc1C	?	-14%
59	CCCCOC(=O)c1ccc(NC(=O)Cc2coc3c(C)c(C)ccc23)cc1	-32%	-44%
60	CC(C)(C)C1CCc2c(sc(NC(=O)c3cc4ccccc4c(=O)o3)c2C(N)=O)C1 (stereo not given)	1%	1%

Next part, starting with the last 6 of the part before.
item	canonical_smiles	PMP22 txn prim	HTT prom inh
55	CCCCCNC(=O)N1CCC(CN(Cc2ccc(Cl)cc2)Cc2ccc([N+](=O)[O-])s2)C1 (stereo not given)	.	-9%
56	CC(C)C(=O)Nc1nnc(S(=O)(=O)N(C)Cc2ccc(F)cc2)s1	34%	-4%
57	Cc1ccc(CCNC(=O)c2ccc(CNS(=O)(=O)c3ccccc3)cc2)cc1	25%	-33%
58	Cc1ccc(NC(=O)CSc2nc3nccnc3c(=O)n2CCc2c[nH]c3ccccc23)cc1C	?	-14%
59	CCCCOC(=O)c1ccc(NC(=O)Cc2coc3c(C)c(C)ccc23)cc1	-32%	-44%
60	CC(C)(C)C1CCc2c(sc(NC(=O)c3cc4ccccc4c(=O)o3)c2C(N)=O)C1 (stereo not given)	1%	1%
61	O=C(NCCN1CCCCC1)c1ccc(Cn2c(SCc3ccc(F)cc3)nc3cccnc32)cc1	-6%	48%[activator]
62	O=C(CN1CCNCC1)NC1CCCCC1	.	-1%
63	CCc1ccc(-c2nc(CSCC(=O)NCc3ccc(C)cc3)c(C)o2)cc1	-4%	?
64	COc1cccc(-c2nc(CS(=O)(=O)CC(=O)NCCc3ccc(OC)cc3OC)c(C)o2)c1	-15%	-28%
65	CCc1c(C)sc(NC(=O)c2cc3nc(-c4ccc(OC)cc4)cc(C(F)(F)F)n3n2)c1C(=O)OC	-14%	0%
66	Cc1ccc(S(=O)(=O)c2cn(CC(=O)Nc3ccc4c(c3)OCO4)c3ccc(C)cc3c2=O)cc1	-12%	-10%
67	Cn1c(=O)oc2cc(S(=O)(=O)NCCC(=O)NCc3ccc(F)cc3)ccc21	-31%	-4%
68	COc1ccc(/C=C(\C#N)c2nc(-c3cc4ccccc4oc3=O)cs2)cc1OC	-13%	-5%
69	CCn1ccc2cc(S(=O)(=O)N3CCCN(C(=O)Nc4cccc(Cl)c4)CC3)ccc21	?	?
70	COc1ccc(-c2cc3ccc(O)c(CN4CCN(CCO)CC4)c3oc2=O)cc1OC	6%	-8%
71	CCOc1cccc(CNc2ccc(O)cc2)c1OCc1ccccc1Cl	?	-22%
72	Cc1cccc(Cn2cccc2CNS(=O)(=O)c2ccc(Br)cc2)c1	?	-14%
73	COc1cccc(NCc2nnc3n2CCCCC3)c1	-35%	4%
74	Cc1ccc(NC(=O)Cn2c(=O)c(C(F)(F)F)nc3ccccc32)cc1C	-15%	16%
75	CCOc1ccc(NC(=O)CC2C(=O)N(c3ccc(F)cc3)C(=O)N2Cc2ccc(OC)c(OC)c2)cc1 (stereo not given)	3%	-15%
76	Cc1cc2cc(CCNS(=O)(=O)c3ccc(Br)cc3)c(=O)[nH]c2cc1C	?	?
77	CCOc1ccc(NC(=O)CN2CCN(CC(=O)Nc3ccc(N(CC)CC)cc3)CC2)cc1	-16%	-22%
78	CCOc1ccccc1NC(=O)NCc1ccc2c(c1)CCN2C(=O)c1ccccc1	?	?
79	O=C(C1CCCN(S(=O)(=O)c2cccc3nsnc23)C1)N1CCN(c2ccccc2F)CC1 (stereo not given)	?	?
80	O=C(COc1ccccc1[N+](=O)[O-])Nc1cccc(-c2nc3ccccc3s2)c1	-17%	52%[activator]
81	COCCCNC(=O)C1CCC(Cn2c(=O)c3sccc3n(Cc3ccc(F)cc3)c2=O)CC1 (stereo not given)	?	5%
82	Cc1ccc(CNC(=O)C2CCCN(Cc3nc(-c4cccc(C)c4)oc3C)C2)cc1 (stereo not given)	?	?
83	COc1cccc(Cc2nc3ccccc3nc2SCC(=O)NCc2ccc(C)cc2)c1	-40%	-5%
84	O=C(Nc1ccc(-c2cn3cccnc3n2)cc1)c1ccccc1F	7%	38%[activator]
85	Cc1ccccc1NC(=O)CSc1nccn1C	17%	-22%
86	CCc1ccc(NC(=O)Cn2c(=O)ccc3cc(S(=O)(=O)N4CCCC4)ccc32)cc1	?	-11%
87	CCOc1ccc(C2NC(=O)c3c(COC)cc(C)nc3N2Cc2ccccc2)cc1OC (stereo not given)	?	-5%
88	CCc1ccc(-n2c(SCc3ccccc3C)nc3[nH]ncc3c2=O)cc1	?	?
89	COc1ccccc1S(=O)(=O)Cc1ccc(C(=O)NCc2ccc(Cl)cc2)o1	-12%	?
90	COc1ccc(-c2c(C)nn3c(N4CCC(C(=O)NCCC(C)C)CC4)cc(C)nc23)cc1OC	-56%	-8%

item	canonical_smiles	PMP22 txn prim	HTT prom inh
91	CC(C)NCC(O)COc1ccc(COCCOC(C)C)cc1 (stereo not given)	.	8%&3%
92	O=c1c2[nH]c3ccccc3c2nc(SCc2ccccc2F)n1-c1ccc(F)cc1	?	-13%
93	CCc1ccc(NC(=O)CSc2nc3c([nH]c4ccccc43)c(=O)n2-c2ccc(C)cc2)cc1	?	-26%
94	CCc1ccc(CNC(=O)c2cnc(N3CCCCC3)c3ccccc23)cc1	-36%	?
95	O=S(=O)(c1ccc2ccccc2c1)n1nc(-c2ccco2)nc1NCc1cccc(Cl)c1	-18%	-25%
96	Cc1cccc(NC(=O)CSc2cn(CC(=O)N3CCOCC3)c3ccccc23)c1	-7%	-5%
97	Cc1ccc(NC(=O)CSc2cc(=O)n(C)c3ccc(Cl)cc23)c(Br)c1	?	-11%
98	CCc1ccc2occ(CC(=O)Nc3sc4c(c3C(=O)OC)CCC4)c2c1	-4%	?
99	COc1cc(-c2ccno2)ccc1S(=O)(=O)N1CCN(c2cc(C)ccc2C)CC1	-5%	?
100	CCOC(=O)C1CCN(S(=O)(=O)c2cc3c4c(c2)CC(=O)N4CCC3)CC1	-25%	-22%
101	CCOC(=O)c1c(C)oc2nc(C)nc(N3CCN(c4ccccc4F)CC3)c12	-20%	0%
102	CCOc1ccc(CNC(=O)C2CCN(c3nnc(-n4c(C)ccc4C)s3)CC2)cc1	?	14µM*
103	Cc1ccc2c(CC(=O)Nc3ccc(S(=O)(=O)Nc4nc(C)cc(C)n4)cc3)coc2c1	29%	-30%

Rows were taken by chance (roughly 2.4% active in at least one column).
